# Assay outcomes deposited in PubChem BioAssay by National Center for Advancing Translational Sciences (NCATS).
# Cruzain inh noDet = qHTS Assay for Promiscuous and Specific Inhibitors of Cruzain (without detergent) | Cruzipain (Trypanosoma cruzi), P25779 | purified cruzain, Z-FR-AMC fluorescence, no detergent | Potency, µM, for the others: max response, negative = inhibition, hits mostly inhibitors | 200,000 compounds, 2.3% hits | AID 1476, 2009; active means well fitted curve in the direction sought with a large enough effect; inconclusive means small, poorly fitted or top-dose-only effect, or another doubt; inactive means no such curve, though single readings can be large; an effect the other way counts as inactive or inconclusive;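 further: plate controls were enzyme without inhibitor for no effect and buffer without enzyme for full effect; nearly all actives have a fitted effect of over 40% in size; top concentration of the series not given in the record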
# Target sequence (P25779 123-467 limits assumed): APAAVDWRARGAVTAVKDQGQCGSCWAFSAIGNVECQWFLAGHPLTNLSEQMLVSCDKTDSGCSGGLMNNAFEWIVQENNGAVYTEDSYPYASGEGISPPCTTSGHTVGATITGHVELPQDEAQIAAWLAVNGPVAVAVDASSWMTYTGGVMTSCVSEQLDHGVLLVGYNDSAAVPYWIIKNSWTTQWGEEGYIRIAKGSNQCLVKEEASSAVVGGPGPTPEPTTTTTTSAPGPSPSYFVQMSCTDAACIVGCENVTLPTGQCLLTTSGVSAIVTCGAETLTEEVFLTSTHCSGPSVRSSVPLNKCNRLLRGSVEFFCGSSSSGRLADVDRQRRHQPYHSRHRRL
#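 Detergent-free condition (0.00005% Triton X-100) in acetate buffer pH 5.5 with DTT. 1.5 nM enzyme and compound were pre-mixed 15 min, then 2 uM Z-FR-AMC substrate added; reaction progress from fluorescence change between first and third reads (60 s).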
# RE007 growth inh = qHTS Assay for Inhibitors of the HIV-1 protein Vpr. S. pombe RE007 Vpr strain, BacTiter-Glo ATP luminescence, 24 h; control for the full effect not named in the record. Potency, µM (doses to about 92.2 µM), for inactives: top-dose activity change, negative = less growth. 360,000 compounds, 0.21% hits. AID 651644, 2012; active = well fitted falling curve with a large enough effect; inconclusive = small, poorly fitted or top-dose-only effect; inactive = no such curve, though single readings can be large or run the other way;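 further: on the % scale 0 is the no-effect control and ±100 the full control effect; nearly all actives have a fitted effect of over 50% in size; the assay follows cell death caused by Vpr and the record does not say whether a fall means rescue or toxicity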
#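 Fission yeast RE007 carrying one integrated HIV-1 vpr copy, seeded at OD 0.01 in PMG+AL medium with 23 nL pinned compound. Grown 24 h at 30 degrees; viability read by BacTiter-Glo luminescence after 5 min.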
# SARS PLP yeast = qHTS of Yeast-based Assay for SARS-CoV PLP; S. cerevisiae expressing SARS-CoV PLpro, growth rescue; control for the full effect not named in the record; Potency, µM (titrated, usually from 32.9 µM), for the others: at the highest dose activity, positive = growth rescue; 330,000 compounds, 0.19% hits; AID 485353, 2010; further: 0% is about no effect; nearly all actives have a fitted effect of over 55% in size; growth read by luminescence after 48 h
# NS1 function inh = qHTS Assay for Inhibitors of Influenza NS1 Protein Function | S. cerevisiae slowed by influenza A NS1, growth recovery by OD600 | Potency, µM (doses to about 46.1 µM), for inactives: at the highest dose activity, positive = more growth | 270,000 compounds, 0.4% hits | AID 2326, 2010; further: actives are rising curves; nearly all actives have a fitted effect of over 50% in size
#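 In this qHTS, NS1 from influenza A is expressed in budding yeast, where it slows growth. Cells are switched from glucose to 2% galactose medium (pH 6.0, -URA), treated with compound, and growth recovery is read at OD600.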
# Cruzain Triton = qHTS Assay for Promiscuous and Specific Inhibitors of Cruzain (with detergent) | purified cruzain, Z-FR-AMC fluorescence, 0.01% Triton | Potency, µM, for the others: max response, negative = inhibition, usual class: inhibitors | 200,000 compounds, 0.43% hits | AID 1478, 2009; active means well fitted curve in the direction sought with a large enough effect; inconclusive means small, poorly fitted or top-dose-only effect, or another doubt; inactive means no such curve, though single readings can be large; an effect the other way counts as inactive or inconclusive;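 further: plate controls were neutral wells for no effect and buffer without enzyme for full effect; nearly all actives have a fitted effect of over 40% in size; top concentration of the series not given in the record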
#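 Cruzain (1.5 nM) preincubated 15 min at RT with compound in 100 mM sodium acetate pH 5.5, 5 mM DTT, 0.01% Triton X-100. Reaction started with 2 uM Z-FR-AMC; AMC fluorescence (ex 360/em 450 nm) change over 60 s gave rate.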
# StopGo reporter = High Throughput Screening for Foot and Mouth Disease Virus Antivirals | human cells with a luciferase reporter of 2A StopGo recoding; control for the full effect not named in the record | Potency, µM (series often up to 57.9 µM), for the others: at the highest dose signal change, negative = less light | 410,000 compounds, 1.2% hits | AID 1159524, 2015; active = well fitted falling curve with a large enough effect; inconclusive = small, poorly fitted or top-dose-only effect; inactive = no such curve, though single readings can be large or run the other way; tested in HEK293T cells; further: on the % scale 0 is the no-effect control and ±100 the full control effect; nearly all actives have a fitted effect of over 45% in size; luciferase light after 4 h
# Marburg entry inh = qHTS for inhibitors of binding or entry into cells for Marburg Virus; 300,000 compounds, 1.8% hits; Marburg virus pseudotyped entry inhibition, cell reporter; control for the full effect not named in the record; about a third of the inactives were read at about 46 µM; Potency, µM (highest dose often 37.8 µM), for the others: at the highest dose activity change, negative = inhibition, actives largely listed as inhibitors; AID 540276, 2011; active = well fitted inhibition curve with a large enough effect; inconclusive = small, poorly fitted or top-dose-only effect, or effect the other way; inactive = flat fitted curve, though single readings scatter; tested in HEK293 cells; about a fifth of its hits are not listed in these tables; further: on the % scale 0 is the no-effect control and ±100 the full control effect; luciferase read-out
# LASV entry inh = qHTS for Inhibitors of binding or entry into cells for Lassa Virus; Lassa virus pseudotype entry inhibition, cell reporter; control for the full effect not named in the record; Potency, µM (series often up to 37.9 µM), inactives show at the highest dose activity change, negative = inhibition, actives largely listed as inhibitors; 300,000 compounds, 1.2% hits; AID 540256, 2011; active means well fitted inhibition curve with a large enough effect; inconclusive means small, poorly fitted or top-dose-only effect, or effect the other way; inactive means flat fitted curve, though single readings scatter; tested in HEK293 cells; further: on the % scale 0 is the no-effect control and ±100 the full control effect; nearly all actives have a fitted effect of over 50% in size; luciferase read-out
# The depositor's hits bear a star; u = inconclusive; x = no result given; & = joins results of further samples; [ ] = dose if it differs, or a comment. Unless noted, the call rests on the fitted dose curve; in most records, active means well fitted rising curve with a large enough effect; inconclusive means small, poorly fitted or top-dose-only effect; inactive means no such curve, though single readings can be large or run the other way. Potency means the concentration at half of the fitted maximal effect.
SMILES,Cruzain inh noDet,RE007 growth inh,SARS PLP yeast,NS1 function inh,Cruzain Triton,StopGo reporter,Marburg entry inh,LASV entry inh
CCOc1ccc(S(=O)(=O)N/N=C\c2ccc3c(c2)OCO3)cc1,x,11%,0%,-24%,x,29%,-5%,u
CCN(CC)c1ccc(S(=O)(=O)N2CCOCC2)cc1NC(=O)CSc1n[nH]c(N)n1,x,-8%,1%,2%,x,-8%,x,x
CC(NC(=S)N1CCN(c2ccccc2)CC1)c1ccccc1 (stereo not drawn),x,3%,0%,-6%,x,-14%,x,x
CC1CCC(NCCc2ccc3c(c2)OCO3)CC1 (stereo not drawn),-2%,2%,8%,0%,3.0%,x,16µM*,8%
CCN1CCCC1CNC(=O)c1cc(S(=O)(=O)CC)c(N)cc1OC (stereo not drawn),-3%,x,3%&-5%,x,3.3%,-3%,27%&27%&27%&27%&27%,0%
CC(C)(C)c1ccc(/C=N/NC(=O)C(=O)NCCCN2CCOCC2)cc1,-4%,2%,-13%,-10%,-4.0%,u,2%,-1%
Cc1ccc(S(=O)(=O)N2CCCc3cc(NS(=O)(=O)c4ccc(C)c(C)c4)ccc32)cc1,u,x,x,x,-1.1%,0%,x,-3%[46.1 µM]
Cc1ccc(-c2sc(-c3cccnc3)nc2CC(=O)O)cc1,x,20%,-2%,x,x,-4%,2%[46.1 µM],25%
COc1ccc(NC(=O)CN2C(=O)NC3(CCCc4ccccc43)C2=O)c(OC)c1 (stereo not drawn),x,11%,-1%,x,x,-23%,6%,15%
CCCCN(C(=O)CSCc1ccc(C)cc1)c1c(N)n(CCC)c(=O)[nH]c1=O,x,-7%,2%,17%,x,-7%,u,-7%
CC(C)CNC(=O)Nc1ccc(F)c(Cl)c1,x,13%,-2%,-31%,x,93%[activator],-12%[46.1 µM],-22%
COc1ccc(C(C(=O)NC2CCCC2)N(C(=O)c2ccoc2C)c2cc(C)cc(C)c2)cc1 (stereo not drawn),15%,-5%,1%,-15%,-2.6%,u,-31%,u

# Arranged by formula weight (smallest number first): 3 of the compounds above.
SMILES,Cruzain inh noDet,RE007 growth inh,SARS PLP yeast,NS1 function inh,Cruzain Triton,StopGo reporter,Marburg entry inh,LASV entry inh
CC(NC(=S)N1CCN(c2ccccc2)CC1)c1ccccc1 (stereo not drawn),x,3%,0%,-6%,x,-14%,x,x
CCN(CC)c1ccc(S(=O)(=O)N2CCOCC2)cc1NC(=O)CSc1n[nH]c(N)n1,x,-8%,1%,2%,x,-8%,x,x
Cc1ccc(S(=O)(=O)N2CCCc3cc(NS(=O)(=O)c4ccc(C)c(C)c4)ccc32)cc1,u,x,x,x,-1.1%,0%,x,-3%[46.1 µM]

# Next results:
SMILES,Cruzain inh noDet,RE007 growth inh,SARS PLP yeast,NS1 function inh,Cruzain Triton,StopGo reporter,Marburg entry inh,LASV entry inh
COc1ccc(-c2csc3ncnc(N4CCN(S(=O)(=O)c5ccc(Cl)s5)CC4)c23)cc1,x,-13%,0%,x,x,-27%,u,u
COc1cc(OC)c(NC(=O)Nc2ccc(OC)c(OC)c2)cc1Cl,-3%,-6%,-5%,-31%,-6.2%,4%,u,25%
Cc1cc2nc3n(c2cc1C)CC1CC(C(=O)NCCc2cccs2)N(C)C31 (stereo not drawn),x,-14%,1%,3%,x,-4%,x,x
O=C(COc1ccc(Cl)cc1Cl)Nc1ccc(CN2CCOCC2)cc1,x,-9%,1%,-18%,x,u,x,x
O=C(/C=C/c1ccco1)Oc1cccc2cccnc12,x,u,-7%,-51%,x,11%,u,6%
Cc1c(C(=O)OCc2ccccc2)[nH]c2c1C(=O)CC(c1ccc(Cl)cc1)C2 (stereo not drawn),7.9µM*,x,x,x,0.3%,-11%,-30%[46.1 µM],-10%[46.1 µM]
CCOC(=O)c1sc(NC(=O)Nc2ccccc2F)nc1C,-7%,-2%,0%,-8%,-3.4%,u,2.2µM*,u
COc1ccc(-c2noc(COc3ccc4ccccc4c3Br)n2)cc1OC,-10%,-12%,0%,-17%,-8.2%,2%,-15%&-15%,11%
CCN(CC)S(=O)(=O)c1ccc(N2CCOCC2)c(NS(=O)(=O)c2ccc(C(C)C)cc2)c1,6%,-12%,1%,18%,-0.4%,65%[activator],-2%,-14%
COc1ccc(NC(=O)CSc2nnc(Cn3c(=O)sc4ccccc43)n2C)c(OC)c1,-8%,1%,21%,u,-5.8%,1%,x,x
CC(C)OCCCNC(=O)c1ccc(NC(=O)C2CCCO2)cc1 (stereo not drawn),3%,-7%,-2%,2%,3.9%,-5%,u,3%
CCC(CC)c1nn2c(=O)cc(COc3ccc(NC(=O)c4cccc(C)c4)cc3)nc2s1,-3%,x,x,x,3.6%,0%,1%[46.1 µM],-13%[46.1 µM]
Cc1nc2ccccn2c1C(=O)NC1CCCCC1,-1%,4%,6%,11%,8.7%,2%,-5%,0%
COc1ccccc1NC1CCCCC1NS(=O)(=O)c1ccc(C)cc1 (stereo not drawn),x,-12%,4%,4%,x,11%,x,x
CCOc1ccc(NC(=O)Cn2c(=O)n(-c3ccccc3)c(=O)c3c4c(sc32)CCCC4)cc1,-1%,x,x,x,-1.4%,-20%,0%[46.1 µM],21%[46.1 µM]
CCCCNC(=O)CSc1nc2cc3c(cc2c(=O)n1CCCC(=O)NCCc1ccc(OC)c(OC)c1)OCO3,-1%,11%,6%,x,1.9%,2%&-6%,u,-15%
COC(=O)Cc1cc(=O)n2[nH]c(C)c(-c3ccccc3)c2n1,-2%,22%,-4%,0%,0.9%,-12%,0%,-3%
Cc1cn2c(=O)cc(COc3ccccc3NC(=O)c3ccc(C(C)(C)C)cc3)nc2s1,-1%,x,x,x,-0.9%,-14%,2%[46.1 µM],2%[46.1 µM]
COc1ccccc1NC(=O)C(=O)Nc1ccc2c(c1)N(C(=O)C1CC1)CCC2,x,-30%,1%,x,x,-23%,-17%,u
O=C(c1cccc([N+](=O)[O-])c1)N(c1ccccn1)c1ccccn1,14%,15%,6%,-1%,2.2%,0%,12%,22%
Cc1ccc(S(=O)(=O)N(CCc2ccccc2)CC(=O)Nc2ccc(Br)cc2)cc1,2%,x,x,x,-5.5%,32%[activator],x,4%[46.1 µM]
CCN1/C(=C\c2ccc3ccccc3[n+]2CC)Sc2cc(C)ccc21,x,u,-6%,-47%,x,35µM*,x,x
Cc1ccc(C(O)Cn2cc([N+](=O)[O-])nc2C)cc1 (stereo not drawn),x,0%,0%,u,x,-18%,u,u
COc1ccc(-c2ocnc2C(=O)N2CCN(C(c3ccccc3)c3ccccc3)CC2)cc1,x,2%,-13%,x,x,-23%,u,u
Cc1cccc2cc3c(NC(=O)C(C)C)nn(C)c3nc12,10%,-15%,0%,-2%,0.2%,-15%,0%,16%
CCOC(=O)c1sc2ncn(CC(=O)Nc3ccc(OCC)cc3)c(=O)c2c1C,-3%,x,x,x,-0.2%,9%,-18%[46.1 µM],u
O=C(Cn1cnc([N+](=O)[O-])n1)N/N=C/c1cccc2ccccc12,3%,-9%,u,-2%,-9.0%,-11%,u,3%
Cc1ccc(Oc2cc(NN3CCCCC3)c([N+](=O)[O-])cc2[N+](=O)[O-])c([N+](=O)[O-])c1,x,0%,7%,-1%,x,-21%,x,x
COc1ccc(-c2cccc(NS(=O)(=O)c3cc([N+](=O)[O-])ccc3C)c2)nn1,x,3%,4%,x,x,58%[activator],-13%,u
Cc1[nH]n2c(=O)cc(C(C)(C)C)nc2c1-c1ccccc1,2%,12%,1%,-10%,3.6%,-25%,u,10µM*
CCCCNC(=O)c1ccc(NS(=O)(=O)c2ccc3[nH]c(=O)[nH]c3c2)cc1,x,24%,-2%,7%,x,-8%,11%,19%
COc1cc(CN2CCN(S(=O)(=O)c3ccc(NC(C)=O)cc3)CC2)cc(OC)c1O,-6%,-12%,-8%,-9%,-0.6%,x,-13%,3%
CC1CCCC(NC(=O)COC(=O)c2ccccc2Sc2ccccc2C#N)C1C (stereo not drawn),1%,-9%,-17%,9%,-3.4%,-1%,0%,18%
CCCN1Cc2cccc(C(=O)N3CCN(c4ccc(F)cc4)CC3)c2C1=O,-7%,32%,7%,0%,2.2%,5%,6%,26%
CCC(C)(C)NC(=O)C(c1cccn1C)N(C(=O)Cn1nnc2ccccc21)c1ccc(OC)cc1 (stereo not drawn),11%,-2%,-3%,-10%,3.1%,16%,-23%&-23%,18%
COc1ccccc1N1C(=O)[C@@H]2[C@H](C1=O)[C@H](C(=O)c1ccc(OC(C)=O)cc1)N1N=CC=C[C@@H]21,x,1%,0%,15%,x,7%,u,0%
CCNc1ncnc2c1cnn2C1CCCCO1 (stereo not drawn),x,-10%,x,x,x,21%,14%,u
COc1ccc(CNC(=O)COC(=O)c2cccc(S(=O)(=O)N3CCOCC3)c2)cc1,x,14%,2%,x,x,6%,-2%,0%
O=C(NCCCN1CCCC1)c1ccc2c(Cl)c3c(nc2c1)CCCC3,x,-6%,1%,x,x,u,5.6µM*,u
